NPYLR7 ag: agonists of mosquito NPYLR7 receptor, primary screen, cell-based, Aedes aegypti, calcium fluorescence, mosquito biting behavior. Aedes aegypti neuropeptide Y-like receptor 7 (NPYLR7). HEK293T NPYLR7/Galpha15, GCaMP6s calcium fluorescence. activation, % at 10 µM. hit rate 0.15% among 270,000. AID 1259423, 2018; in the data active = activation above about 40%;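 note: 0% = vehicle and 100% = reference agonist at the receptor; some compounds past the cut are filed as inactive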
NPYLR7 ag max-min: also measured in NPYLR7 ag; calls as there; activation, %; measured here: Max-Min RFU normalised activation; some inactives read as strong as hits;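 span of the calcium signal over five minutes; 0% = vehicle and 100% = native peptide agonist; compound fluorescence can raise it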
* marks the source's active call; other numbers are inactive results; & = joins results of further samples. Only part of the results is shown. The share of hits here may be higher or lower than overall.

SMILES	NPYLR7 ag	NPYLR7 ag max-min
Cc1ncc2c(c1CNC(=O)/C=C/c1cccs1)CCN(C(=O)c1ccc3c(c1)OCCO3)C2	11	6
O=C(NC1CCN(C(=O)c2ccncc2)CC1)C1CCCc2ccccc21 (centres undefined)	-2	-4
N#CSc1ccc(NS(=O)(=O)c2ccc3c(c2)OCCO3)cc1	-3	-8
CCc1ccc(-c2nnn(CC(=O)NC3(C#N)CCCC3)n2)cc1	-5	-6
O=C(NC1CCCN(C2CCCCCC2)C1)C1(c2ccc(F)cc2)CC1 (centres undefined)	0	-4
CCN1CCCC(OC(=O)C(c2ccccc2)c2ccccc2)C1 (centres undefined)	4&-10	-9&-14
CCOC(=O)C1CCN(C(=O)c2ccc(Nc3c(Oc4ccc5c(c4)OCO5)cnn(C)c3=O)cc2)CC1	5	13
CCc1nc(C)nc(N2CCN(C(=O)NC(C)C)CC2)c1Cc1cc(C)ccc1C	20	28
CC(=O)Nc1cc(-c2csc(C)n2)ccc1O	-2	-3
CCOc1ccccc1N1CCN(C(=O)CSc2nc(Cl)cc(N3CCN(C(=O)C4CC4)C(C)C3)n2)CC1 (centres undefined)	-9	1
CCN(CC)C(=O)[C@@H]1C[C@@H](N)CN1C(=O)c1c(C)[nH]c(C(C)=O)c1C	0	-7
CN(CC(=O)ON=C(N)c1ccccc1)S(=O)(=O)c1ccccc1	1	42
COc1cccc(NC(=O)Nc2ccc(Nc3ccc(-n4nc(C)c(C)c4C)nn3)cc2)c1	-3	-6
CN1CCN(/N=C2\C(=O)Nc3ccc(F)cc32)CC1	-14	-15
CCOc1ccc(-c2c(C)[n+]3c(n2-c2ccc(OCC)cc2)CCCCC3)cc1	0	-1
COCCCN(CC(=O)N(CCc1c[nH]c2ccccc12)Cc1ccc(C(F)(F)F)cc1)S(=O)(=O)c1ccc(OC)cc1	24	28
O=C(CCN1CCCC1)Nc1cccc2ccccc12	1	0
O=C(/C=C/c1ccc(-n2ccnc2)cc1)NC1CCSc2c(F)cccc21 (centres undefined)	9	6
CCn1nc(C)c(NC(=O)CN2CCCC2c2ccc(C(N)=O)s2)c1C (centres undefined)	0	-1
CN(C)CCCN(C(=O)CCc1ccccc1)c1nc2cc3c(cc2s1)OCO3	-1	-3

Reformatted as a markdown table: 14 of the compounds above
| canonical_smiles | NPYLR7 ag | NPYLR7 ag max-min |
| --- | --- | --- |
| Cc1ncc2c(c1CNC(=O)/C=C/c1cccs1)CCN(C(=O)c1ccc3c(c1)OCCO3)C2 | 11 | 6 |
| O=C(NC1CCN(C(=O)c2ccncc2)CC1)C1CCCc2ccccc21 (centres undefined) | -2 | -4 |
| N#CSc1ccc(NS(=O)(=O)c2ccc3c(c2)OCCO3)cc1 | -3 | -8 |
| CCc1ccc(-c2nnn(CC(=O)NC3(C#N)CCCC3)n2)cc1 | -5 | -6 |
| O=C(NC1CCCN(C2CCCCCC2)C1)C1(c2ccc(F)cc2)CC1 (centres undefined) | 0 | -4 |
| CCN1CCCC(OC(=O)C(c2ccccc2)c2ccccc2)C1 (centres undefined) | 4&-10 | -9&-14 |
| CCOC(=O)C1CCN(C(=O)c2ccc(Nc3c(Oc4ccc5c(c4)OCO5)cnn(C)c3=O)cc2)CC1 | 5 | 13 |
| CCc1nc(C)nc(N2CCN(C(=O)NC(C)C)CC2)c1Cc1cc(C)ccc1C | 20 | 28 |
| CC(=O)Nc1cc(-c2csc(C)n2)ccc1O | -2 | -3 |
| CCOc1ccccc1N1CCN(C(=O)CSc2nc(Cl)cc(N3CCN(C(=O)C4CC4)C(C)C3)n2)CC1 (centres undefined) | -9 | 1 |
| CCN(CC)C(=O)[C@@H]1C[C@@H](N)CN1C(=O)c1c(C)[nH]c(C(C)=O)c1C | 0 | -7 |
| CN(CC(=O)ON=C(N)c1ccccc1)S(=O)(=O)c1ccccc1 | 1 | 42 |
| COc1cccc(NC(=O)Nc2ccc(Nc3ccc(-n4nc(C)c(C)c4C)nn3)cc2)c1 | -3 | -6 |
| CN1CCN(/N=C2\C(=O)Nc3ccc(F)cc32)CC1 | -14 | -15 |

Next part
SMILES	NPYLR7 ag	NPYLR7 ag max-min
O=C(CN(c1cccc([N+](=O)[O-])c1)S(=O)(=O)c1ccccc1)Nc1cccc(Cl)c1Cl	10	14
N#Cc1ncn(CCC23CC4CC(CC(C4)C2)C3)n1	7	5
Cc1ccc(C(=O)NCC(=O)NC(C)c2cc(C)sc2C)s1 (centres undefined)	13	9
CCn1ncnc1C(C)NC(=O)c1occc1C (centres undefined)	1	-1
CSCCC(C)N1CCC(n2nccc2NC(=O)C(C)(C)C)CC1 (centres undefined)	5	3
CO[C@H]1C(=O)N(Cc2ccccc2)C2(CCN(C(=O)Cc3cccs3)CC2)[C@@H]1CO	27	26
CCCC1SCCN1C(=O)CNC(C)=O (centres undefined)	-1	-3
CNc1nc(=O)n(-c2nc(-c3ccccc3)oc2-c2ccccc2)cc1Cl	2	0
Fc1ccccc1CC1CCN(Cc2nc(-c3cccs3)no2)CC1	-9	-8
CC(=O)c1ccc(N2CCN(C(=O)CSc3ccc(F)cc3F)CC2)cc1	9	0
O=C(c1cccnc1)N1CCc2c(ncnc2N2C[C@H]3CC[C@@H](C2)N3)C1	-2	-5
COCc1nc(N2CCCC(Oc3ccc(F)cc3)C2)c2cnn(C)c2n1 (centres undefined)	10	1
Cc1ccccc1N1CCN(C2CCCN(Cc3ccc(C#CCCO)cc3)C2)CC1 (centres undefined)	0&1	-3&-2
Cc1cccn2c(=O)nc(SCc3cccc4ccccc34)nc12	6	6
CC(C(=O)Nc1ccc(F)c(F)c1)N1CCC(C(=O)N2CCCC2)CC1 (centres undefined)	14	16
COCC(=O)NC(Cc1ccccc1)c1nnc(SCc2ccc(F)cc2)n1-c1ccc([N+](=O)[O-])cc1 (centres undefined)	16	22
O=S(=O)(c1cccc(Cl)c1)N1CCCC(OCc2cccc(F)c2)C1 (centres undefined)	2	13
CCCn1c(=O)[nH]c2sc3c(c2c1=O)CCN(C(=O)CC1Cc2ccccc2C1)C3	9	6
c1cncc(CCNc2nc(N3CCCC3)nc(N3CCCC3)n2)c1	8	7
Cc1cc(C(=O)N(Cc2cccnc2)c2nc3c(C)ccc(Cl)c3s2)on1	6	5
COc1ccc(-n2nnnc2SCC(=O)NC2CCS(=O)(=O)C2)cc1 (centres undefined)	-1	-1
COc1cc(Br)c(/C=C2\C(=O)N(c3ccccc3)N=C2C)cc1OC	-1	-12
COc1ccc(CN2CCCC(CNC(=O)c3cccs3)C2)c(F)c1 (centres undefined)	16	10
CNCC(=O)NCc1cnn(Cc2ccccc2)c1	0	14
CC(C)(C)OC(=O)N1CCN(C(=O)NCc2cccc(C(F)(F)F)c2)CC1	-14	-15
CCOC(=O)Cn1c(=O)c2c(nc3n2CC(C)CN3c2cc(Cl)ccc2C)n(C)c1=O (centres undefined)	3	0
Cc1ccc2[nH]c(CN3CCN(c4ncccc4C(N)=O)CC3)nc2c1C	3	-9
COc1ccccc1Oc1ccc(NS(=O)(=O)NCc2ccccc2)cc1	-1	-1
COc1cccc(C(=O)N2C(C(=O)NCCN(C)C)COC23CCN(C(=O)Cc2ccccc2)CC3)c1 (centres undefined)	2	9
CCCc1ncc(CN(C)C2CCCN(CCc3ccccc3)C2)cn1 (centres undefined)	6	4
CC(=O)Nc1cccc(C(=O)N2CCOC(COCc3c(Cl)cccc3Cl)C2)c1 (centres undefined)	-1	-4
O=c1n(CCSc2ccc3ccccc3c2)nc2ccccn12	5	5
CCCCOc1ccc2cc(C(=O)NC3CCCCNC3=O)[nH]c2c1 (centres undefined)	5	0
C#CCn1c(=NC(=O)c2cc(Cl)sc2Cl)sc2cc(S(N)(=O)=O)ccc21	4	-3
COC(=O)C1=C(C)NC(=O)NC1c1cccc(Br)c1 (centres undefined)	1	-6
CCC(C)N(CC(=O)N(Cc1ccc(F)cc1)Cc1sccc1C)C(=O)c1ccc(Cl)cc1 (centres undefined)	19	24
Cc1ccc(NC(=O)C2(C)CCN2CC(C)C)cc1O (centres undefined)	3	-1
O=C(Nc1ccc(F)c(Cl)c1)C1Cc2c(-c3ccco3)ccnc2O1 (centres undefined)	-1	-4
COc1ccc(NC(=O)C2CCN(C(=O)CCNC(=O)Nc3c(Br)cc(C(C)C)cc3Br)CC2)cc1	43	32
COc1cccc(-n2c(SCC(=O)N3CCOCC3)nc3c(c2=O)SCC3)c1	-6	-11
CCN(c1ccc(NC(=O)c2cccn2C)cc1)C(C)C	2	1
COc1ccc(C2c3ccsc3CCN2CC(=O)N2CCN(C(=O)c3cccc([N+](=O)[O-])c3)C(C)C2)cc1 (centres undefined)	4	-1
COc1ccc(C2CC(C(F)(F)F)n3ncc(C(=O)Nc4cccc(O)c4)c3N2)cc1 (centres undefined)	7	3
O=C(CCc1ccccc1)NC1CCN(c2ccccc2C(=O)NCCN2CCCCC2)CC1	27	27
O=C(CSc1nnc(C2CC2)n1C1CC1)c1cccs1	4	3
Cc1cc2c(=O)n(Cc3ccco3)c(SCC(=O)Nc3ccccc3)nc2s1	5	3
O=C(c1ccc(F)cc1)N(Cc1cccnc1)Cc1nccn1Cc1ccc(F)cc1	-1	6
COc1ccc(OC)c(-c2cc(N)nc(N3CCOCC3)n2)c1	-2	10
O=C1NC(=S)/C(=C/c2ccc(OCc3ccc(F)cc3)c(Br)c2)N1	-5	-3
Cc1ccc(S(=O)(=O)NCCc2nnc3ccc(SCc4ccccc4Cl)nn23)cc1	12	2

Additional records follow:
SMILES	NPYLR7 ag	NPYLR7 ag max-min
Cc1[nH]c2ccccc2c1C1(O)C(=O)N(CCCc2ccccc2)c2ccccc21 (centres undefined)	-2	-4
CN(C)c1ncc(-c2nccn2Cc2ccccc2C(F)(F)F)cn1	3	22
Fc1cccc(OCCOc2ccccc2Br)c1	-2	-2
O=C(CNC(=O)c1c(F)cccc1Cl)Nc1ccc(F)cn1	-5	-6
COc1ccc(NC(=O)C(C2CCCC2)N2CCN(C(=O)Nc3ccc(F)cc3)CC2)cc1 (centres undefined)	11	13
COc1cc(C2=N/C(=C\C(Br)=C\c3ccccc3)C(=O)O2)cc(OC)c1OC	-1	-6
CC(CN(C)c1nc(-c2cccnc2)nc2c1cnn2C)N1CCOCC1 (centres undefined)	21	19
Cc1ccc(F)c(NC=C2C(=O)OC3(CCCCC3)OC2=O)c1	2	5
Cc1ccc2[nH]c(C)c(CC(=O)NC(C)c3ccc(C)o3)c2c1 (centres undefined)	10	5
CSc1ccc(C(=O)N2CCCC(CO)(CCOc3ccccc3)C2)cc1 (centres undefined)	20	9

Fetched one by one from the entries so far, two records:
SMILES	NPYLR7 ag	NPYLR7 ag max-min
Cc1ccc(F)c(NC=C2C(=O)OC3(CCCCC3)OC2=O)c1	2	5
CC(CN(C)c1nc(-c2cccnc2)nc2c1cnn2C)N1CCOCC1 (centres undefined)	21	19

(continued)
SMILES	NPYLR7 ag	NPYLR7 ag max-min
CCc1[nH]c2ccc(CNC(=O)Cn3nc(C)ccc3=O)cc2c1C	1	-1
Cc1cccc(NCN2C(=O)c3ccccc3C2=O)c1	13	9
COc1ccc(OCC(=O)OCc2cc(-c3cc4ccccc4o3)on2)cc1	2	-2
COc1cc2c(cc1OC)C(C(C)NC(=O)Nc1ccc(C)cc1)N(Cc1cccc(F)c1)CC2 (centres undefined)	0	5
CC(C)n1c(Sc2nncn2C)nc2c1c(=O)n(C)c(=O)n2C	3	1
CC(C)CNS(=O)(=O)C1CCS(=O)(=O)C1 (centres undefined)	3	2
c1ccc(-n2ncc3c2ncn2c(-c4ccncc4)nnc32)cc1	-3	-6
O=C(CS(=O)(=O)Cc1ccccc1F)Nc1ccc(OC(F)(F)F)cc1	7	7
CC[C@H](C)[C@H](N)C(=O)N1CCC(Cn2cc(-c3ccc(F)cc3)nn2)CC1	39	30
O=C(Nc1ccc(SCc2ccccn2)nn1)C1CC1	-3	-2
Cc1cc(C)c2oc(-c3cc(N)ccc3Cl)nc2c1	-11	-11
CCN(CC)CCNC(=O)c1cc(NC(C)=O)ccc1Cl	7	-7
O=C1NCCN2CCN(C(=O)C3(Nc4ccccc4)CCCC3)CC12 (centres undefined)	-5	-4
CCOc1ccc(CN2CCCC(c3nn(C)c(=O)n3CC)C2)cn1 (centres undefined)	12	8
O=C(CNS(=O)(=O)c1cccc(Cl)c1Cl)N1CCCC1	6	4
COc1cccc(CNc2nn[nH]n2)c1OCc1ccc(F)cc1Cl	-13	-17
CCOC(=O)CN1C(=O)C(O)(CC(C)=O)c2ccccc21 (centres undefined)	3	2
CC(C)COc1nc(-c2cccs2)n(-c2ccc(NC(=O)c3cccc([N+](=O)[O-])c3)cc2)n1	-4	-1
CCN1CCN(c2ccc(F)cc2C(C)NC(=O)Nc2ncc(C)o2)CC1 (centres undefined)	7	6
CCN(CC)CCN(C(=O)C1COc2ccccc2O1)c1nc2c(OC)ccc(C)c2s1 (centres undefined)	-3	-7
Cn1cc(-c2ccnc(NC(CCn3ccnc3)c3ccccc3)n2)cn1 (centres undefined)	8	7
O=C(CCc1nnc(Cc2cccc(C(F)(F)F)c2)o1)N1CCN(CC2CC2)CC1	6	2
CCOC(=O)c1cc(C)nn1C1CCN(C(=O)c2ccc(Cl)cc2Cl)CC1	41	31
Cc1nc2ccc(C(=O)OCC(=O)NC3(C#N)CCCC3)cc2nc1C	6	6
O=C(CCn1cncn1)N1CC[C@@H](c2ccc(F)cc2)[C@H](O)C1	2	1
COc1cc(S(=O)(=O)Nc2c(F)cccc2F)cc(C(=O)O)c1OC	-1	-2
CCOC(=O)C(C(=O)N1CCn2cncc2C1)C1CCCCC1 (centres undefined)	7	5
C=CCN1CCc2c(cc(O)c(O)c2Cl)C(c2ccccc2)C1 (centres undefined)	-6	-1
CC(Nc1ccc2nc(C3CC3)sc2c1)C(=O)N1CCOCC1 (centres undefined)	4&3	3&1
O=C(NC1CCN(c2ccccc2C(=O)NCCN2CCCCC2)CC1)c1ccc(F)cc1F	-7	3
CN(Cc1cc2cc(F)ccc2[nH]1)Cc1nc(-c2cccs2)no1	1	-5
c1ccc2ncc(-c3cncnc3)cc2c1	14	0
COCCn1c(=O)c2c(nc3n2CC(C)CN3c2ccc(OC)cc2)n(C)c1=O (centres undefined)	-3	-7
CCC(C)N(Cc1cccc(OS(C)(=O)=O)c1)C(=O)Nc1cccc(C)c1C (centres undefined)	5	13

Source: PubChem
